2A StopGo – High Throughput Screening for Foot and Mouth Disease Virus Antivirals; 1.2% of 410,000 active; Potency, µM (series often up to 57.9 µM), for inactives: at the highest dose signal change, negative = less light; human cells with a luciferase reporter of 2A StopGo recoding; control for the full effect not named in the record; active = well fitted falling curve with a large enough effect; inconclusive = small, poorly fitted or top-dose-only effect; inactive = no such curve, though single readings can be large or run the other way; tested in HEK293T cells; also: % is scaled to controls: 0 for no effect and ±100 for the full control effect; nearly all actives have a fitted effect of over 45% in size; luciferase light after 4 h
RE007 growth inh – qHTS Assay for Inhibitors of the HIV-1 protein Vpr. S. pombe RE007 Vpr strain, BacTiter-Glo ATP luminescence, 24 h; control for the full effect not named in the record. Potency, µM (titrated, usually from 92.2 µM), for the others: at the highest dose activity change, negative = less growth. 0.21% of 360,000 active. AID 651644, 2012; active = well fitted falling curve with a large enough effect; inconclusive = small, poorly fitted or top-dose-only effect; inactive = no such curve, though single readings can be large or run the other way;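 also: % is scaled to controls: 0 for no effect and ±100 for the full control effect; nearly all actives have a fitted effect of over 50% in size; the assay follows cell death caused by Vpr and the record does not say whether a fall means rescue or toxicity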
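Fission yeast RE007 carrying one integrated HIV-1 vpr copy, seeded at OD 0.01 in PMG+AL medium with 23 nL pinned compound. Grown 24 h at 30 degrees; viability read by BacTiter-Glo luminescence after 5 min.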
SARS PLP yeast – qHTS of Yeast-based Assay for SARS-CoV PLP. S. cerevisiae expressing SARS-CoV PLpro, growth rescue; control for the full effect not named in the record. Potency, µM (doses to about 32.9 µM), without a hit: at the highest dose activity, positive = growth rescue. 0.19% of 330,000 active; active means well fitted rising curve with a large enough effect; inconclusive means small, poorly fitted or top-dose-only effect; inactive means no such curve, though single readings can be large or run the other way; also: 0% is about no effect; nearly all actives have a fitted effect of over 55% in size; growth read by luminescence after 48 h
Marburg entry inh – qHTS for inhibitors of binding or entry into cells for Marburg Virus; Marburg virus pseudotyped entry inhibition, cell reporter; control for the full effect not named in the record; about a third of the inactives were read at about 46 µM; Potency, µM (top dose mostly 37.8 µM), for the others: at the highest dose activity change, negative = inhibition, most hits filed as inhibitors; 1.8% of 300,000 active; active = well fitted inhibition curve with a large enough effect; inconclusive = small, poorly fitted or top-dose-only effect, or effect the other way; inactive = flat fitted curve, though single readings scatter; tested in HEK293 cells; about a fifth of its hits are not listed in these tables; also: % is scaled to controls: 0 for no effect and ±100 for the full control effect; luciferase read-out
Cruzain noTriton – qHTS Assay for Promiscuous and Specific Inhibitors of Cruzain (without detergent); Cruzipain (Trypanosoma cruzi), P25779; purified cruzain, Z-FR-AMC fluorescence, no detergent; Potency, µM, inactives show max response, negative = inhibition, usual class: inhibitors; 2.3% of 200,000 active;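 also: plate controls were enzyme without inhibitor for no effect and buffer without enzyme for full effect; nearly all actives have a fitted effect of over 40% in size; top concentration of the series not given in the record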
Target sequence (P25779 123-467 limits assumed): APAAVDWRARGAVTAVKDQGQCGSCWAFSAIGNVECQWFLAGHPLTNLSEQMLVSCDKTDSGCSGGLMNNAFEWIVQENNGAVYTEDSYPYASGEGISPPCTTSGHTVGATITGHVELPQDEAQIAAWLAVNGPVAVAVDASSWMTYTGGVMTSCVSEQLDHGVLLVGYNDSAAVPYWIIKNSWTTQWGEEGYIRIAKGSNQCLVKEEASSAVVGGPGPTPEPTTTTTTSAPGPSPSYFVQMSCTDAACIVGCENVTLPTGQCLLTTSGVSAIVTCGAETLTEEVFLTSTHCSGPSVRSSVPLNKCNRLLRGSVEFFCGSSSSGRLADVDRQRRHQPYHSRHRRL
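Purified cruzain at 1.5 nM, pre-incubated 15 min with compound at room temperature in 100 mM sodium acetate pH 5.5, 5 mM DTT, 0.00005% Triton X-100. Reaction started with 2 uM Z-FR-AMC; AMC fluorescence increase over 60 s gives rate.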
Cruzain inh Det – qHTS Assay for Promiscuous and Specific Inhibitors of Cruzain (with detergent). Potency, µM, without a hit: max response, negative = inhibition, most hits filed as inhibitors. 0.43% of 200,000 active. purified cruzain, Z-FR-AMC fluorescence, 0.01% Triton. AID 1478, 2009;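 also: plate controls were neutral wells for no effect and buffer without enzyme for full effect; nearly all actives have a fitted effect of over 40% in size; top concentration of the series not given in the record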
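Enzyme 1.5 nM, Z-FR-AMC 2 uM, NaOAc 100 mM pH 5.5, DTT 5 mM, Triton X-100 0.01%; 15 min RT compound preincubation; kinetic ex360/em450, 60 s delta.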
Lassa entry inh – qHTS for Inhibitors of binding or entry into cells for Lassa Virus; Lassa virus pseudotype entry inhibition, cell reporter; control for the full effect not named in the record; Potency, µM (series often up to 37.9 µM), for inactives: at the top dose activity change, negative = inhibition, actives largely listed as inhibitors; 1.2% of 300,000 active; AID 540256, 2011; active means well fitted inhibition curve with a large enough effect; inconclusive means small, poorly fitted or top-dose-only effect, or effect the other way; inactive means flat fitted curve, though single readings scatter; tested in HEK293 cells; also: % is scaled to controls: 0 for no effect and ±100 for the full control effect; nearly all actives have a fitted effect of over 50% in size; luciferase read-out
NS1 inh – qHTS Assay for Inhibitors of Influenza NS1 Protein Function; S. cerevisiae slowed by influenza A NS1, growth recovery by OD600; Potency, µM (top dose mostly 46.1 µM), for inactives: at the top dose activity, positive = more growth; 0.4% of 270,000 active; AID 2326, 2010; active means well fitted rising curve with a large enough effect; inconclusive means small, poorly fitted or top-dose-only effect; inactive means no such curve, though single readings can be large or run the other way; also: nearly all actives have a fitted effect of over 50% in size
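Growth recovery, yeast-based: influenza A NS1 expressed in S. cerevisiae causes slow growth, and suppressors are detected by OD600. The parent strain without NS1 is used as positive control.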
Numbers without * were called inactive; ? = inconclusive; . = not tested or not shown; & = joins results of further samples; [ ] = remark or other dose. Unless noted, calls follow the shape of the dose curve; as a rule, active = well fitted curve in the direction sought with a large enough effect; inconclusive = small, poorly fitted or top-dose-only effect, or another doubt; inactive = no such curve, though single readings can be large; an effect the other way counts as inactive or inconclusive. Potency is read from the fitted curve at half-maximal effect.

SMILES | 2A StopGo | RE007 growth inh | SARS PLP yeast | Marburg entry inh | Cruzain noTriton | Cruzain inh Det | Lassa entry inh | NS1 inh
Cc1ccc(-c2noc(CNS(=O)(=O)c3ccc(F)cc3)n2)cc1 | -13% | . | . | ? | -4% | -10.0% | 0%[46.1 µM] | .
O=C(CSc1n[nH]c(-c2ccccc2)n1)N1CCOCC1 | 23% | -13% | -1% | -7%[46.1 µM] | . | . | 0%[46.1 µM] | 5%
O=C(Cc1c(C(=O)O)[nH]c2ccc(Cl)cc12)Nc1ccc2c(c1)OCCO2 | -14% | 17% | 2% | -2% | -13% | -14% | -1% | 15%
O=S(=O)(c1ccc(F)cc1)N1CCN(S(=O)(=O)c2cc(F)ccc2F)CC1 | 2% | -9% | 9% | 2% | . | . | 3% | 20%
CCc1nn(C(CC)C(=O)NCc2ccc(F)cc2)c(=O)c2cc3occc3n12 (configuration not stated) | 47%[activator] | . | . | -4%[46.1 µM] | -9% | -2.3% | -3%[46.1 µM] | .
CCCNC(=O)c1ccccc1NC(=O)C1COc2ccccc2O1 (configuration not stated) | ? | -5% | -3% | 7% | 9% | -4.6% | ? | -1%
O=C(Cc1ccccc1)c1c[nH]c(C(=O)O)c1 | -10% | -2% | 0% | 4%[46.1 µM] | . | . | 7% | 3%
COc1ccc(CCNC(=O)CCc2cn(Cc3ccccc3Cl)c3ccccc23)c(OC)c1 | -3% | . | . | . | -8% | -2.5% | ? | .
Nc1nc(-c2cccnc2)nn1C(=O)c1ccc(Cl)cc1 | 5% | -2% | 2% | -26% | . | . | 5% | .
CC(C)OC(=O)CSc1nc(C(C)C)nc2ccccc12 | -3% | -5% | 1% | . | . | . | . | 0%
COc1ccc(N/C=C(\[N+](=O)[O-])S(=O)(=O)c2ccccc2)cc1 | -13% | -1% | 2% | -17%[46.1 µM] | . | . | ? | 7%
Nc1cc(=O)[nH]c(SCc2cccc(Cl)c2)n1 | -24% | -3% | 5% | -3% | ? | 0.5% | -1% | 19%
CSc1nc(Cl)cc(Nc2ccc(O)cc2)n1 | 44%[activator] | 4% | -2% | -21%[46.1 µM] | . | . | 8% | .
Cc1sc2ncn(CC(=O)NCC(=O)N(C)Cc3ccccc3)c(=O)c2c1C | -7% | 14% | 15% | -11% | 14% | -3.1% | -7% | -7%
COc1ccc(NC(C)=O)cc1CNC(=O)COc1ccccc1C(=O)Nc1cccc(C)c1C | -9% | 2% | 3% | 5%[46.1 µM] | . | . | -28%[46.1 µM] | 2%
CCOc1ccc(NC(=O)CN2CCN(c3ccc(F)cc3)CC2)cc1 | -5% | 2% | -4% | 4%[46.1 µM] | . | . | -26%[46.1 µM] | -9%
CCOC(=O)c1sc(NC(=O)C2CC(=O)N(c3ccc(C)cc3)C2)nc1C (configuration not stated) | 64%[activator] | 10% | 1% | -19%[46.1 µM] | . | . | 1%[46.1 µM] | 4%
Cc1c(C)n(Cc2ccccc2)c2ncnc(Cl)c12 | ? | 5% | -2% | . | . | . | . | -13%
CCCNC(=O)C1CCN(c2ccc(S(=O)(=O)N3CCOCC3)cc2Cl)CC1 | . | -1% | -19% | 0% | 14% | -0.6% | -3% | -2%
CN(CC(=O)NC(=O)NCc1ccccc1)CC(=O)Nc1ccc(Cl)c(C(F)(F)F)c1 | ? | -2% | -11% | ? | . | . | ? | .
Cc1sc2ncn(CC(=O)NCCCC(=O)N3CCN(c4ncccn4)CC3)c(=O)c2c1C | -24% | -15% | 0% | -6%[46.1 µM] | 8% | 3.5% | 0% | 2%
C=CCn1c(SCc2c(C)noc2C)nc2sc3c(c2c1=O)CCCC3 | -1% | 10% | -8% | 21µM* | -6% | -3.0% | ? | -52%
CSc1ccccc1NC(=S)N/N=C/c1cccn1Cc1cccc(C)c1 | -9% | -4% | 18% | 7%[46.1 µM] | . | . | ? | .
CCOC(=O)c1sc2nc(C)[nH]c(=S)c2c1C | -3% | 0% | 20% | 3%[46.1 µM] | . | . | -1%[46.1 µM] | -2%
CCCCOc1ccc(CC2C(=O)N(C)C(=O)N(C)C2=O)cc1 | 7% | 26% | -1% | ? | 13% | 3.9% | ? | -61%
COc1ccc(Nc2cc(C(=O)NC3CCCC3)c3ccccc3n2)cc1 | ? | . | . | 14%[46.1 µM] | 2% | -7.5% | -2%[46.1 µM] | .
COc1ccc(-n2c(SCC(=O)Nc3cc(C)on3)nc3ccc(O)cc3c2=O)cc1OC | -22% | 10% | 0% | 21%&21% | ? | -6.1% | 23% | 5%
O=c1ccc(/C=C/c2ccccc2)nn1Cc1ccccc1Cl | -19% | 0% | ? | -15% | 5% | -15% | -26% | 6%
Cc1ccc(CNC(=O)c2ccc(N3CCCC3)c(NC(=O)Nc3ccc(F)c(Cl)c3)c2)cc1 | 5% | . | . | . | ? | -3.3% | 2%[46.1 µM] | .
CCN(CC(=O)Nc1c(F)cccc1F)C(=O)c1cccc(S(=O)(=O)NCc2ccccc2)c1 | 30% | 2% | -2% | 3% | . | . | -21% | .

Another view of 2 compounds above.
Cc1c(C)n(Cc2ccccc2)c2ncnc(Cl)c12
  2A StopGo: ?
  RE007 growth inh: 5%
  SARS PLP yeast: -2%
  Marburg entry inh: .
  Cruzain noTriton: .
  Cruzain inh Det: .
  Lassa entry inh: .
  NS1 inh: -13%
CCCNC(=O)C1CCN(c2ccc(S(=O)(=O)N3CCOCC3)cc2Cl)CC1
  2A StopGo: .
  RE007 growth inh: -1%
  SARS PLP yeast: -19%
  Marburg entry inh: 0%
  Cruzain noTriton: 14%
  Cruzain inh Det: -0.6%
  Lassa entry inh: -3%
  NS1 inh: -2%

Next part.
SMILES	2A StopGo	RE007 growth inh	SARS PLP yeast	Marburg entry inh	Cruzain noTriton	Cruzain inh Det	Lassa entry inh	NS1 inh
CCOC(=O)C1(CCOc2ccccc2)CCN(Cc2ccc(C)s2)CC1	?	-10%	0%	?	.	.	?	-6%
CCN(CC)C(=O)COc1cccc2ccccc12	-6%	10%	2%	17%	0%	0.6%	3%	-3%
CN(C)CC1(C)Cc2ccsc2C1O (configuration not stated)	-5%	-4%	.	-20%	.	.	?	.
COc1ccc(C(=O)NCc2nnc(SCC(=O)Nc3nnc(C)s3)o2)cc1	-2%	1%	-1%	.	.	.	.	10%
Cc1ccccc1C1=NCC(=O)N(CC(=O)N2CCCCC2)c2sc(C)c(C)c21	-23%	15%	0%	?	1%	0.9%	?	-19%
Cc1cccc(-c2nnc3n(CCc4ccccc4)c(=O)c4ccccc4n23)c1	?	.	.	?	1%	-2.0%	5%[46.1 µM]	.
Cc1ccc2c(c1)N(CCC(=O)NCC1COc3ccccc3O1)C(=O)CO2 (configuration not stated)	-5%	-4%	4%	-21%	5%	-1.4%	-9%	-53%
O=C(Nc1nccs1)c1ccc(-c2ccc(Cl)cc2Cl)o1	13%	5%	-10%	7%	12%	-6.1%	-1%	-3%
CCCCCCCSc1nnc(N)s1	-11%	7%	-3%	?	.	.	8%	-32%
O=[N+]([O-])c1ccc(C2CCCC/C2=N/O)c([N+](=O)[O-])c1 (configuration not stated)	-18%	-4%	-2%	.	.	.	.	1%
COc1cc(OCC(N)=O)cc(OC)c1OC	14%	9%	?	-5%	16%	-0.6%	-5%	2%
CC(=O)NC1CC(=O)N(c2ccc3c(c2)OCCO3)C1 (configuration not stated)	-9%	.	.	.	7%	-0.2%	1%[46.1 µM]	.
CCC(C)Sc1nc2c(c(=O)[nH]c(=O)n2C)n1CC(O)COc1cccc2ccccc12 (configuration not stated)	?	4%	5%	0%&0%	?	-3.5%	-2%	-12%
Cc1csc(N2CCc3ccccc32)n1	45%[activator]	1%	-2%	?	-16%	-1.4%	?	5%
CCC1SC(=NC(=O)c2ccc(Cl)c(Cl)c2)NC1=O (configuration not stated)	12%	-16%	-18%	-3%	-9%	-12%	17%	-71%
COc1ccc(C(=O)Nc2ccnn2C2CCN(C(=O)c3cnsn3)CC2)cc1	11%	3%	0%	18%	.	.	3%	-12%
Cc1ccc2[nH]c(O)c(N=NC(=O)C3CC3c3ccccc3)c2c1Br (configuration not stated)	-13%	1%	-12%	1%	-11%	2.8%	?	0%
CCC(CC)C(=O)c1c[nH]c(C(=O)N2CCN(c3ccccc3)CC2)c1	-3%	-10%	1%	6%[46.1 µM]	.	.	?	-4%
Cc1ccc(C2C(C#N)=C(N)N(c3ncn[nH]3)C3=C2C(=O)CC(C)(C)C3)cc1 (configuration not stated)	-19%	-12%	7%	-4%	-7%	-1.9%	2%	0%
Cc1cccc(OCC(=O)NCCCNC(=O)c2ccccn2)c1	8%	-16%	-7%	?	.	.	2%[46.1 µM]	14%
CCc1ccccc1N(CC)C(=O)C(=O)Nc1ccc2nc3n(c(=O)c2c1)CCCCC3	-29%	.	.	4%[46.1 µM]	?	-6.1%	?	.
O=C(c1ccc(CSc2nc3ccncc3n2Cc2ccccc2)cc1)N1CCCCCC1	-5%	.	.	26%[46.1 µM]	2%	-9.4%	-2%[46.1 µM]	.
COc1ccc(NC(=O)CN(C)C(=O)CCNC(=O)c2ccccc2OC)cc1	-19%	7%	.	16%	.	.	12%	.

Just Lassa entry inh, for some of the entries so far:
compound	Lassa entry inh
CC(=O)NC1CC(=O)N(c2ccc3c(c2)OCCO3)C1 (configuration not stated)	1%[46.1 µM]
CCOC(=O)C1(CCOc2ccccc2)CCN(Cc2ccc(C)s2)CC1	?

Bioassay records: PubChem BioAssay, National Center for Advancing Translational Sciences (NCATS)
